Source: PubChem BioAssay (National Center for Advancing Translational Sciences (NCATS))
N370S GC – qHTS Assay for Inhibitors and Activators of N370S glucocerebrosidase as a Potential Chaperone Treatment of Gaucher Disease. Lysosomal acid glucosylceramidase (Homo sapiens), P04062. N370S GC spleen homogenate, 4MU-glucoside fluorescence. Potency, µM (doses to about 59.4 µM), for inactives: at the top dose activity change, negative = inhibition, actives largely listed as inhibitors. actives 0.092% (n = 330,000);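 note: 0% = full enzyme activity and -100% = no enzyme basal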
FEN1 inhibitor – qHTS Assay for the Inhibitors of Human Flap endonuclease 1 (FEN1) | P39748 | Recombinant FEN1 flap cleavage, fluorescence, 15 min | Potency, µM (doses to about 114 µM), without a hit: at the top dose activity change, negative = inhibition, usual class: inhibitors | actives 0.35% (n = 390,000) | AID 588795, 2011; note: nearly all actives have a fitted effect of over 65% in size
Target sequence (P39748 whole entry, looked up): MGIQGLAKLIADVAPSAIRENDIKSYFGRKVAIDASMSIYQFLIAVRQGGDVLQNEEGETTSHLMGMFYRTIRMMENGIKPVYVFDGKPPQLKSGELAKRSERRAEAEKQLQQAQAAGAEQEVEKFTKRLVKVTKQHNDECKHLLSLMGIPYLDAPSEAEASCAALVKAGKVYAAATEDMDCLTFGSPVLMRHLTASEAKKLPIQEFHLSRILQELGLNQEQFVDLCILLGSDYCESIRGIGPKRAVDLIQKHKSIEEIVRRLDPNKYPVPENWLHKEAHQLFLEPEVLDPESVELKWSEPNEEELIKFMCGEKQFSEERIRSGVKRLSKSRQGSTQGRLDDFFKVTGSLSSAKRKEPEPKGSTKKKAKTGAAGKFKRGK
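Read-out was taken twice, immediately and after 15 min, following addition of 50 nM substrate to 10 nM FEN1 that had sat with test compound for 15 min at room temperature. Curves came from a four-parameter Hill model.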
An asterisk follows results filed as active; ? = inconclusive; nt = not tested or not shown; & = joins results of further samples; [ ] = dose if it differs, or a comment. Calls come from the whole dose curve; as a rule, active = well fitted curve in the direction sought with a large enough effect; inconclusive = small, poorly fitted or top-dose-only effect, or another doubt; inactive = no such curve, though single readings can be large; an effect the other way counts as inactive or inconclusive. Unless noted, % is set by controls: 0 for no effect and ±100 for the full control effect; potency is the fitted concentration of half-maximal effect.

No.	FEN1 inhibitor	N370S GC	smiles
1	10.7%	9.3%	COc1ccc(OCCNS(=O)(=O)c2ccccc2)cc1
2	-10.0%	8.2%	C[C@H](NC(=O)OCc1ccccc1)c1nnc([C@H](Cc2ccccc2)NC(=O)OC(C)(C)C)o1
3	3.1%	nt	Cc1cccn2c(=O)c3cc(C(=O)NC(C)C)n(C)c3nc12
4	-17.9%	-0.1%&5.2%	C[C@@H]1C=C[C@](Cc2ccccc2)(C(=O)NCCc2c[nH]c3ccccc23)N1C(=O)c1ccccc1
5	-1.3%	-25.6%	CNC(=S)N/N=C/c1ccc(-c2ccc(C(=O)O)cc2)o1
6	3.3%	-15.2%	Cc1ccc(S(=O)(=O)CCN2CCN(c3ccccn3)CC2)cc1
7	-11.9%	9.6%	CCOC(=O)C1=C(C)NC(C)=C(C(=O)OCC)C1c1ccco1
8	4.6%	-4.6%	CCC(c1nnc(SCC(=O)NNC(=O)c2ccccc2)n1Cc1ccccc1)N(C)C (configuration not stated)
9	-1.9%	-19.7%	CSc1nc2c(c(C(F)(F)F)n1)CC(C)CC2 (configuration not stated)
10	-3.2%	20.4%	c1ccc(CC2CCN(Cc3ccccn3)CC2)cc1
11	-2.9%	18.2%	O=C(NC1CCCC1)c1ccc(Br)o1
12	-8.9%	nt	CC(OC(=O)CCC(=O)c1ccc(Cl)s1)C(=O)NC1(C#N)CCCCC1 (configuration not stated)
13	-10.7%	16.2%	CCCn1nnc(NC(=O)COc2ccc(C3CCCCC3)cc2)n1
14	20.6%	nt	O=C(NCc1ccccc1)c1cccc(N2CCCS2(=O)=O)c1
15	6.3%	-1.2%	Cc1ccc(CCNC(=O)c2sc3nc4n(c(=O)c3c2C)CCC4)cc1

More entries follow:
No.	FEN1 inhibitor	N370S GC	smiles
16	5.7%	-4.9%	O=C(CSc1nnc(CNC(=O)c2ccco2)o1)Nc1ccccc1F
17	-8.9%	4.1%	CCOC(=O)c1cc2sccc2n1CC(=O)Nc1ccc(OC)cc1OC
18	18.1%	nt	O=C(NNC(=O)c1csc(N2CCOCC2)n1)c1ccc(=O)[nH]c1
19	11.9%	?	O=C1CC(=O)Nc2cc(S(=O)(=O)N3CCN(c4ccc([N+](=O)[O-])cc4)CC3)ccc2N1
20	-2.9%	nt	CC(NC(=O)CN(C)CC(=O)Nc1ccccc1Br)c1ccccc1 (configuration not stated)
21	-2.1%	-7.3%	COc1ccc(NC(=O)CN(C)C(=O)Cn2c(=O)oc3ccccc32)cc1
22	2.2%	1.9%	Cc1sc(-c2ccncc2)nc1OC(=O)c1cc(Cl)cc(Cl)c1
23	9.8%	-3.7%	CC(=O)c1ccc(NC(=O)/C(=C\c2ccc(F)cc2)NC(=O)c2ccco2)cc1
24	-5.3%	nt	O=C(CSc1oc(-c2ccc(F)cc2)nc1S(=O)(=O)c1ccc(Br)cc1)NC1CCCCC1
25	-7.6%	-12.7%	CCC(c1nnnn1Cc1ccc2c(c1)OCO2)N1CCN(CC)CC1 (configuration not stated)
26	-2.6%	nt	Cc1cc(C)n(-c2nc3cc(Cl)c(Cl)cc3nc2Nc2ccc(F)cc2C)n1
27	-6.7%	0.7%	COc1ccc(C(O)c2nccc3cc(OC)c(OC)cc23)cc1OC (configuration not stated)
28	-4.9%	nt	COc1ccc(-c2ccc(NS(=O)(=O)c3ccc(OC)c(OC)c3)cc2)nn1
29	-2.0%	nt	CN(CC(=O)Nc1cccc2ccccc12)C(=O)c1ccc(NC(=O)CC#N)cc1
30	12.7%	-20.2%	O=C(O)CCC(=O)OC1CC2CCC1C2 (configuration not stated)

(cont.)
No.	FEN1 inhibitor	N370S GC	smiles
31	-2.6%	0.4%	COCCCNC(=O)c1ccc2c(=O)n(Cc3ccc4c(c3)OCO4)c(=S)[nH]c2c1
32	10.7%	-18.1%	Cc1noc(C)c1CSCC(=O)N1CCN(c2ccc([N+](=O)[O-])cc2)CC1
33	-13.0%	-0.7%	CN(CC(=O)NCc1ccc(Cl)cc1)S(=O)(=O)c1cccc2cccnc12
34	20.1%	-6.4%	CCCCNC(=S)N(CCN(C)C)Cc1cc2cc3c(cc2[nH]c1=O)OCCO3
35	-3.1%	5.5%	CCOC(=O)CNC(=O)CSc1nnc(NC(=O)c2ccccc2Cl)s1
36	-1.9%	11.9%	Cc1nn2c(=O)c3c4c(sc3nc2n1-c1ccccc1)COC(C)(C)C4
37	4.3%	-3.2%	COC(=O)[C@@]1(Cc2ccccc2)C=C[C@@H](C)N1C(C)=O
38	0.4%	?	Cc1cc(NC(=O)CCC(=O)N(Cc2ccco2)C2(C(=O)NC3CCCCC3)CCCC(C)C2)no1 (configuration not stated)
39	5.2%	nt	COc1ccc(CCNC(=O)Cn2cc(C(=O)c3ccc(Cl)cc3)c(=O)c3ccc(C)nc32)cc1OC
40	-3.2%	6.8%	COc1cccc(Sc2ccccc2/C=N/NC(N)=O)c1
41	-3.2%	5.6%	CCOC(=O)c1ccc(NC(=O)N2CCN(C(=O)c3ccco3)CC2)cc1
42	-1.1%	nt	CCOc1ccc(NC(=O)COC(=O)Cn2cnc3ccccc32)cc1
43	-2.5%	1.2%	CC1(C)CC(NC(=O)COc2ccccc2Cl)CC(C)(C)N1
44	-0.2%&1.9%	-3.1%	CCN1CCN(C(=O)c2ccc3c(c2)N(Cc2ccccc2)C(=O)c2ccccc2S3=O)CC1 (configuration not stated)
45	-1.2%	-6.6%	CC(C)(C)C(=O)Nc1ccc(-c2csnn2)cc1

Of the compounds above, these have a COOH group.
No.	FEN1 inhibitor	N370S GC	smiles
5	-1.3%	-25.6%	CNC(=S)N/N=C/c1ccc(-c2ccc(C(=O)O)cc2)o1
30	12.7%	-20.2%	O=C(O)CCC(=O)OC1CC2CCC1C2 (configuration not stated)

Other compounds follow:
No.	FEN1 inhibitor	N370S GC	smiles
46	-7.4%	1.1%	CC(NS(=O)(=O)c1ccc(Br)cc1)C(=O)NCc1ccc2c(c1)OCO2 (configuration not stated)
47	-4.9%	nt	Cc1ccc(-c2ccc(=O)n(C(C)C(=O)Nc3ccccc3Cl)n2)cc1C (configuration not stated)
48	-2.7%	0.2%	Cc1ccccc1-c1nc(CN2CCC(C(=O)NC3CCCCC3)CC2)c(C)o1
49	2.2%&15.1%	-19.8%	COC(=O)CCN(c1ccccc1)S(=O)(=O)c1cc(-c2cc(C)no2)ccc1OC
50	1.0%	6.1%	CC(=O)c1cccc(NC(=O)CSc2ccc(-c3ccc4c(c3)OCO4)nn2)c1
51	12.3%	-1.3%	CCN(CC(=O)Nc1ccc(NC(C)=O)cc1)C(=O)Cc1c(Cl)cccc1Cl
52	-5.5%	7.6%	COc1ccc2c(CC(=O)Nc3ccccc3OC)coc2c1
53	1.1%	-8.9%	Cc1cc(C)cc(NC(=O)COc2ccc(C(=S)N3CCOCC3)cc2)c1
54	-17.8%	nt	Cc1ccc(NS(=O)(=O)c2ccc3c(c2)OCCCO3)cc1S(=O)(=O)N1CCOCC1
55	-3.1%	6.9%	COc1ccc(OCc2cccc(C(=O)Nn3cc([N+](=O)[O-])cn3)c2)cc1
56	-1.6%	11.4%	CCOC(=O)C(CCCOc1ccccc1)C(=O)OCC
57	-11.4%	-3.8%	COc1ccc(C(CNC(=O)c2cccc(NS(=O)(=O)c3ccc(C)c(F)c3)c2)N2CCCC2)cc1 (configuration not stated)
58	-11.0%	-10.1%	Cc1cc(=O)[nH]c(N2CCc3ccccc3C2)n1
59	-3.9%	-0.3%	O=C(CN1CCN(c2ccc(F)cc2)CC1)NCc1ccc(Cl)cc1
60	?	?	CC1(C)OC(c2ccccc2)=C/C(=C/C=C2C(=O)c3ccccc3C2=O)O1

Compound profiles, from the list above.
Cc1ccc(NS(=O)(=O)c2ccc3c(c2)OCCCO3)cc1S(=O)(=O)N1CCOCC1 is entered as FEN1 inhibitor = -17.8%; N370S GC = nt
COc1ccc(C(O)c2nccc3cc(OC)c(OC)cc23)cc1OC (configuration not stated) is entered as FEN1 inhibitor = -6.7%; N370S GC = 0.7%
O=C(CSc1oc(-c2ccc(F)cc2)nc1S(=O)(=O)c1ccc(Br)cc1)NC1CCCCC1 is entered as FEN1 inhibitor = -5.3%; N370S GC = nt

Remaining list, next part
No.	FEN1 inhibitor	N370S GC	smiles
61	-19.2%	-1.9%	Cc1nc(C)c(-c2csc(Nc3cccnc3)n2)s1
62	-2.9%	-1.3%	CCc1cc(CNC(=O)CC2C(=O)NCCN2Cc2ccccc2C(F)(F)F)on1 (configuration not stated)
63	-0.4%	6.7%	CCC(=O)N1C(C(=O)N2CCCC2)CSC1c1ccc(OC)cc1 (configuration not stated)
64	-5.0%	nt	Cc1cc(C)cc(NC(=O)COCc2cc(-c3ccc4c(c3)OCO4)on2)c1
65	-11.8%	1.5%	CC1CC(C)CN(C(=O)/C=C/c2ccc([N+](=O)[O-])s2)C1 (configuration not stated)
66	-14.0%	-20.1%	Cc1ccc(NC(=O)C(=O)NCC2CCCN2S(=O)(=O)c2cccs2)cc1C (configuration not stated)
67	-11.4%	13.0%	Cc1ccc(N=N/C(=C\O)C(=O)c2ccc(Cl)cc2)cc1
68	-3.4%	-8.5%	CCSc1nc(=S)n(Cc2ccccc2)c(C)c1C(C)=O
69	8.9%	7.2%	Cc1cc(NC(=O)CSc2nc(-c3ccccc3)cs2)no1
70	-1.5%	nt	O=c1oc2c3c(ccc2c2ccccc12)OCN(Cc1ccccc1Cl)C3
71	2.3%	-1.8%	CC(=O)Nc1cc2nc(C)n(Cc3ccc([N+](=O)[O-])cc3)c2nc1C
72	4.7%	-4.7%	CCCn1cc(CN2CCCC(C(=O)c3ccc4c(c3)OCO4)C2)c(C)n1 (configuration not stated)
73	11.4%	3.0%	Cc1cc(F)ccc1S(=O)(=O)N1CCC2(CC1)OCCN2S(=O)(=O)c1cccs1
74	-15.2%	-5.9%	CC(=O)c1ccc(NC(=O)Nc2ccc(Cl)cc2)cc1
75	15.7%	nt	COc1ccc(Cl)cc1NC(=O)C(C)N1Cc2ccccc2C1=O (configuration not stated)

(list continues)
No.	FEN1 inhibitor	N370S GC	smiles
76	7.7%	5.0%[12.8 µM]	CCOC(=O)c1cncc(C(=O)O)c1
77	-14.6%	-2.2%	O=C(NCc1ccccn1)c1ccc(OC2CCN(Cc3cccs3)CC2)cc1
78	-9.3%	2.7%	Cc1cc(C)n(CC(=O)n2c3c(c4ccccc42)CCCC3)n1
79	11.9%	nt	Cc1cc(C)cc(NC(=O)CN(C)S(=O)(=O)c2ccc3c(c2)CCC(=O)N3)c1
80	-1.5%	-4.3%	Cc1n[nH]c(=O)c2c(NC(=O)CSc3nc4ccccc4c(=O)n3-c3ccc(OC(F)F)cc3)oc(C)c12
81	0.0%	4.0%	COCCOC(=O)C1=C(N)OC2=C(C(=O)CC(C)(C)C2)C1c1cccnc1 (configuration not stated)
82	-7.1%	-5.5%	CCOC(=O)C1=C(N)N(c2cc(S(=O)(=O)N3CCOCC3)ccc2Cl)C(=O)C1
83	11.5%	0.1%	COc1ccccc1NC(=S)NCc1ccco1
84	5.1%	2.3%	O=C1CCCN1CCCNS(=O)(=O)c1ccc(Br)s1
85	2.3%	-8.6%	CCc1ccccc1NC(=O)c1cc(-c2cccc(O)c2)on1
86	2.5%	nt	Cc1ccc(CNC(=O)CSc2nnc3n2CCCCC3)cc1
87	-18.0%	6.1%	CCCCNc1c(N)n(CC(C)C)c(=O)[nH]c1=O
88	-7.3%	-4.2%	c1ccc(C2CC(c3ccccc3)C(c3ccccc3)N2)cc1 (configuration not stated)
89	2.8%	-6.9%	CC(C)(C)OC(=O)N1CCCC1C(=O)NC(Cc1ccccc1)C(=O)O (configuration not stated)
90	-2.8%	0.5%	COc1ccc(C(C(=O)NC2CCCC2)N(Cc2ccc(F)cc2)C(=O)c2ccn[nH]2)cc1OC (configuration not stated)

More compounds follow:
No.	FEN1 inhibitor	N370S GC	smiles
91	4.2%	6.5%	CN(CC(=O)Nc1ccccc1Br)c1ncnc2sccc12
92	0.8%	0.0%	COc1ccccc1NC(=O)Cn1c(C)nc2c(sc(=S)n2Cc2ccco2)c1=O
93	-6.4%	-11.3%	Fc1ccc(Br)cc1C1C=C(c2ccc(Br)cc2)Nc2ncnn21 (configuration not stated)
94	-14.7%	-11.3%	NCC(c1ccccc1)c1c[nH]c2ccccc12 (configuration not stated)
95	-11.7%	-6.7%	COc1ccc(-n2nc(C(=O)NCC(=O)N3CCN(C)CC3)c3ccccc3c2=O)cc1OC
96	-0.1%	2.4%	Cc1ccn(CCC(=O)N2c3ccccc3CC2C)n1 (configuration not stated)
97	-1.1%	-18.8%[2.35 µM]	CCCOn1c(OCC(C)C)nc2ccccc2c1=O
98	-9.8%	8.3%	CCOc1ccc(C2CC(c3ccc(CC)cc3)Nc3nc(N)nn32)cc1 (configuration not stated)
99	-4.1%	nt	CCn1c(=O)c(=O)n(CC)c2cc(N3CCCCC3)c(NC(=O)c3ccccc3OC)cc21
100	-5.3%	-0.2%	COc1ccc(CNC(=O)CC(C)c2ccccc2)cc1 (configuration not stated)
101	-10.9%	5.4%	CC(Sc1ccc(Cl)cc1)C(=O)Nc1ccc2c(c1)OCO2 (configuration not stated)
102	-0.8%	-4.0%	CCOc1ccc(NS(=O)(=O)c2ccc(C(=O)NCCCN3CCOCC3)cc2)cc1
103	-0.8%	nt	Oc1ccc(C23CCCC2C2(CCCC2)c2ccc(O)cc2O3)c(O)c1 (configuration not stated)

Two compounds picked at random from the list so far, as already listed:
No.	FEN1 inhibitor	N370S GC	smiles
95	-11.7%	-6.7%	COc1ccc(-n2nc(C(=O)NCC(=O)N3CCN(C)CC3)c3ccccc3c2=O)cc1OC
97	-1.1%	-18.8%[2.35 µM]	CCCOn1c(OCC(C)C)nc2ccccc2c1=O

A portion of the library, and most or all hits are left out here.
